Sa growth inh = blocks Staphylococcus aureus growth. AID 720641. relative growth, % (no concentration beside the values). 0.53% of 170,000 active. S. aureus RN4220 growth, OD600, 20 h, 42 °C; active compounds read low;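 active = growth at 42 °C up to 50% and 20 or more points under that at 30 °C, or under 10% at both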;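 note: 300 nL library stock went into each well; scaled to the means of positive and negative controls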
GIV Gai3 FP = inhibitors of GIV GBA-motif binding to rat Galpha-i3. Galpha-i3/FITC-GIV peptide fluorescence polarization, 90 min; active compounds read low; scaled: aluminum fluoride 0%, vehicle 100%. percent of control (FP), % (concentration not given with the values). 0.42% of 210,000 active. P08753. AID 1224905;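 active = replicate mean at 85% of control or lower, very high polarization wells dropped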;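 note: wells of about 15 µL received 100 nL stock; the first replicate is given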
Target sequence (P08753 whole entry, looked up): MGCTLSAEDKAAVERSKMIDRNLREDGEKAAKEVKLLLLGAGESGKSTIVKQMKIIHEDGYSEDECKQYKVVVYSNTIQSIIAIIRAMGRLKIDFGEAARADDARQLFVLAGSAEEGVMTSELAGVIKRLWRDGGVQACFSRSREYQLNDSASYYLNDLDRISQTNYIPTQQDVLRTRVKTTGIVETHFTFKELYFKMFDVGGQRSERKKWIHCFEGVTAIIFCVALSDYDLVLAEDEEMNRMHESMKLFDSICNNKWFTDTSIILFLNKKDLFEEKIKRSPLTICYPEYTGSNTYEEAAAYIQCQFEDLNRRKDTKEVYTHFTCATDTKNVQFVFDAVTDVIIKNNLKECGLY
HCMV NEC inh = disrupts HCMV UL50-UL53 complex binding; HTRF UL50-UL53 interaction, normalized percent inhibition; inhibition, % (concentration not given with the values); 0.15% of 190,000 active; AID 1918969;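 active = both replicates at 50% or more, plus weaker picks with an unusually low signal ratio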;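 note: stock transfer was 100 nL into about 20 µL; 0% = negative control wells and 100% = wells with untagged competitor protein; inactives centre near -12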
Sa growth inh second temp = further read-out of Sa growth inh, marked with its call; relative growth, %; measured here: growth at 30 °C;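 optical density after 20 h as mean of two plates; 100% = untreated growth and lower means inhibition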
* hit, by the source's call; · = not tested or not shown; & = joins results of further samples.

The opening seven compounds (preview)
entry	SMILES	Sa growth inh	Sa growth inh second temp	GIV Gai3 FP	HCMV NEC inh
1	Cc1oc(-c2cccc(Cl)c2)nc1CN1C(=O)CCCc2ccccc21	101	82	100	-15
2	O=C(CSc1nc2ccc(N3C(=O)C4C5C=CC(C5)C4C3=O)cc2s1)NC1CCCCC1 (stereo unspecified)	·	·	106	-8
3	CC(C)C(=O)NCc1nc(-c2ccccc2Cl)no1	·	·	96	-13
4	COc1cc(C(=O)Nc2cc(-c3nc4cc(Cl)cc(Cl)c4o3)ccc2C)cc(OC)c1OC	·	·	102	-18
5	CCOc1ccc(C2C(C(N)=O)=C(C)Nc3nc(SCc4ccccc4)nn32)cc1 (stereo unspecified)	104	86	106	-138
6	COc1ccc(NC(=O)CSC2=Nc3ccccc3C3=NC(CC(=O)NCc4ccc5c(c4)OCO5)C(=O)N23)cc1 (stereo unspecified)	58	80	106	·
7	COc1cc(Nc2nc3ccccc3nc2N=CN(C)C)cc(OC)c1OC	86	95	·	-41

The whole of this part, from the first entry:
entry	SMILES	Sa growth inh	Sa growth inh second temp	GIV Gai3 FP	HCMV NEC inh
1	Cc1oc(-c2cccc(Cl)c2)nc1CN1C(=O)CCCc2ccccc21	101	82	100	-15
2	O=C(CSc1nc2ccc(N3C(=O)C4C5C=CC(C5)C4C3=O)cc2s1)NC1CCCCC1 (stereo unspecified)	·	·	106	-8
3	CC(C)C(=O)NCc1nc(-c2ccccc2Cl)no1	·	·	96	-13
4	COc1cc(C(=O)Nc2cc(-c3nc4cc(Cl)cc(Cl)c4o3)ccc2C)cc(OC)c1OC	·	·	102	-18
5	CCOc1ccc(C2C(C(N)=O)=C(C)Nc3nc(SCc4ccccc4)nn32)cc1 (stereo unspecified)	104	86	106	-138
6	COc1ccc(NC(=O)CSC2=Nc3ccccc3C3=NC(CC(=O)NCc4ccc5c(c4)OCO5)C(=O)N23)cc1 (stereo unspecified)	58	80	106	·
7	COc1cc(Nc2nc3ccccc3nc2N=CN(C)C)cc(OC)c1OC	86	95	·	-41
8	COC(=O)C1=C(C)N(C)C(=O)NC1c1ccccc1 (stereo unspecified)	96	99	114	13
9	COc1ccc(N2C(=O)/C(=C/c3cc4c(cc3Cl)OCO4)NC2=S)cc1	·	·	98	-9
10	CC1(C)OC(=O)C(=Cc2ccc(-c3ccccc3)o2)C(=O)O1	90	89	112	-10
11	Cc1c(C(=O)NC2CCCc3ccccc32)oc2ccc(S(=O)(=O)N3CCC(C)CC3)cc12 (stereo unspecified)	·	·	108	-10
12	CC(C)(C)c1ccc(S(=O)(=O)/C=C/C#N)cc1	·	·	102	2&-19
13	CCC(=O)Nc1c(C#N)c(C)c(C)n1Cc1cccs1	100	110	110	5
14	O=C(OCc1ncc(-c2ccccc2)o1)c1ccc(Cl)nc1	71	93	·	-29
15	O=C1Nc2ccc(I)cc2/C1=C/c1cc(Br)c(O)c(Br)c1	·	·	282	-34&-62&-30
16	CCCn1c(SCc2cc(OC)c(OC)cc2C)n[nH]c1=O	100	95	·	-2
17	CCOC(=O)C1CCCN(C(=O)c2cn(CC)c3ccc(S(=O)(=O)N(C)C4CCCCC4)cc3c2=O)C1 (stereo unspecified)	98	87	102	-14
18	C/C(=N\N=C1\NC(=O)C(CC(=O)Nc2ccc(C)c(Cl)c2)S1)C(C)(C)C (stereo unspecified)	98	96	106	6
19	COCCNC(=O)Cn1c(C(=O)OC)cc2ccsc21	·	·	105	-8
20	COc1ccc(OCC(=O)NCc2ccc(-c3nc4ncccc4o3)cc2)cc1	98	89	99	-5
21	COC(=O)c1sccc1NC(=O)Nc1cc(C)oc1C(F)(F)F	102	95	107	-20
22	COC(=O)c1ccc(CSc2c(C(C)C)cnc3c2c(=O)n(C)c(=O)n3C)cc1	86	92	106	·
23	CCOC(=O)c1ccccc1NC(=O)/C(C#N)=C/c1ccc(-c2ccc(Cl)cc2)o1	95	78	76*	-19
24	CN(C)c1cccc(C(=O)OCC(N)=O)c1	106	83	·	-31
25	Cc1cc(C)cc(Oc2coc3cc(OCC(=O)NC4CCCCC4)ccc3c2=O)c1	103	99	100	16
26	O=c1[nH]c(=O)n(Cc2ccccc2)c2nc[nH]c12	83	82	95	·
27	O=C(O)c1ccccc1SCc1cn2cc(Br)ccc2n1	145	85	·	-30
28	Cn1c(SCc2ccccc2F)nc2c([nH]c3ccccc32)c1=O	125	91	111	·
29	Cc1oc2cc(OC(=O)C(C)NC(=O)OCc3ccccc3)ccc2c(=O)c1Oc1ccccc1 (stereo unspecified)	123	102	·	7
30	Cc1ccc2c(c1)NC(=O)C(CC(=O)Nc1ccccc1Cl)O2 (stereo unspecified)	105	84	99	-24

Ordered by the number under Sa growth inh second temp (rising): 3 from the list above
No.	mol	Sa growth inh second temp
26	O=c1[nH]c(=O)n(Cc2ccccc2)c2nc[nH]c12	82
22	COC(=O)c1ccc(CSc2c(C(C)C)cnc3c2c(=O)n(C)c(=O)n3C)cc1	92
29	Cc1oc2cc(OC(=O)C(C)NC(=O)OCc3ccccc3)ccc2c(=O)c1Oc1ccccc1 (stereo unspecified)	102

Continued:
entry	SMILES	Sa growth inh	Sa growth inh second temp	GIV Gai3 FP	HCMV NEC inh
31	COc1ccc(NS(=O)(=O)c2cc(-c3ccno3)oc2C)c(OC)c1	·	·	109	-30
32	NC(=O)c1ccc(C(N)=O)cc1	113	107	98	-5
33	O=c1c(NCCCN2CCOCC2)c(Br)cnn1-c1ccccc1	121	91	·	-10
34	CCOC(=O)CC(NS(=O)(=O)c1cc(-c2cc(C)no2)ccc1C)c1ccc(C)cc1 (stereo unspecified)	108	100	102	·
35	COc1ccc(NC(=O)CSc2nc3ccc([N+](=O)[O-])cc3[nH]2)c(OC)c1	·	·	98	-17
36	CCn1nnnc1SCC(=O)c1ccc(OC)cc1OC	88	86	95	-50
37	CC1OC(Nc2ccc(OC(F)(F)F)cc2)C(O)C(O)C1O (stereo unspecified)	94	78	104	-6
38	c1csc(Cn2cccc2)c1	90	90	98	-11
39	O=C(Cn1ncc2c3ccccc3n(Cc3ccccc3)c2c1=O)N1CCCCCC1	107	92	109	-16
40	C=CCn1c2ccccc2c2ccccc21	107	106	99	-6

Reprinted at random: 4 entries already listed.
entry	SMILES	Sa growth inh	Sa growth inh second temp	GIV Gai3 FP	HCMV NEC inh
33	O=c1c(NCCCN2CCOCC2)c(Br)cnn1-c1ccccc1	121	91	·	-10
40	C=CCn1c2ccccc2c2ccccc21	107	106	99	-6
36	CCn1nnnc1SCC(=O)c1ccc(OC)cc1OC	88	86	95	-50
31	COc1ccc(NS(=O)(=O)c2cc(-c3ccno3)oc2C)c(OC)c1	·	·	109	-30

(cont.)
entry	SMILES	Sa growth inh	Sa growth inh second temp	GIV Gai3 FP	HCMV NEC inh
41	CN1CCN(S(=O)(=O)c2ccc(Sc3nnc(-c4cccs4)n3-c3ccccc3)nc2)CC1	89	84	·	-22
42	CC1=C(C(=O)Nc2ccc(Br)cn2)C(c2ccccc2Cl)C2=C(CCCC2=O)N1 (stereo unspecified)	·	·	104	-5
43	O=C(N1CC23C=CC(CC2CC12CCCCC2)O3)C(F)(F)F (stereo unspecified)	113	85	·	-37
44	CCCOc1cccc(C(=O)Nc2ccc(OC(=O)c3cccc(OCCC)c3)c(-c3nc4ccccc4o3)c2)c1	·	·	105	-5
45	C/C(=N/O)C1CCCCCCCCCCC1	110	87	·	-2
46	COc1ccccc1C(=O)OCc1ccc(F)cc1	110	94	·	-29
47	CC1CCCCN1C(=O)CNC(=O)Cc1ccc(Cl)cc1 (stereo unspecified)	103	101	99	-8
48	COc1cc(C2Nc3cc(C)c(C)cc3NC3=C2C(=O)CC(C)(C)C3)c(Br)c(OC)c1OC (stereo unspecified)	·	·	112	-16
49	O=C(CCCCn1c(=O)c2ccccc2n(Cc2ccccc2F)c1=O)NCc1ccccc1Cl	103	83	103	-9
50	O=C(O)CC1(CC(=O)NCc2ccccc2)CCCCC1	109	92	103	-1
51	CCOC(=O)c1cccc(NC(=O)CC2C(=O)N(c3ccc(OC)cc3)C(=O)N2C2CCCC2)c1 (stereo unspecified)	80	90	106	·
52	COc1ccc(CCNC(=O)c2cc3n(n2)C(C(F)(F)F)CC(C2CC2)N3)cc1OC (stereo unspecified)	82	106	100	4
53	Cc1nc2ccccc2n1C(=O)N(C)C	104	105	104	-25
54	N#CCC(=O)c1ccc(F)cc1	67	73	·	-26
55	CSc1nc(SC)c(C#N)c(-c2ccco2)n1	99	93	101	-3
56	CC1=Nc2ccccc2NC(C)(C)C1	96	92	126	-13
57	COCCNC(=O)CSc1nc(-c2ccccc2)no1	·	·	101	-13
58	O=C(CN1CCCCC1)NC1CC2CCC1C2 (stereo unspecified)	107	101	110	8
59	Cc1sc2nc3ccc(N4CCCCC4)nn3c(=O)c2c1C	94	88	·	-45
60	CCOC(=O)Nc1ccc2c(COC(=O)[C@H](C)NC(=O)c3ccco3)cc(=O)oc2c1	101	100	·	5
61	Cc1cc(C(=O)CN2C(=O)NC(C)(c3ccccc3)C2=O)c(C)n1C (stereo unspecified)	91	105	·	-8
62	S=C(NCCCN1CCOCC1)N1CC2CCC(CC2)C1	89	83	102	-14
63	O=C(/C=N/O)NCC1CCNCC1	100	85	103	-12
64	CC1Cc2cc(C(=O)Nc3ccc(C(F)(F)F)cc3)ccc2N1S(C)(=O)=O (stereo unspecified)	73	100	·	-18
65	CCC(=O)N1c2ccccc2CC1C(=O)N1CCN(c2ccccc2F)CC1 (stereo unspecified)	102	87	98	·
66	COc1cc(NC(=O)CCn2c(=O)oc3ccccc32)cc(OC)c1OC	104	93	108	4
67	O=C(c1ccccc1)N1CC(OCc2cccc(F)c2)C1	·	·	100	-11
68	CCCc1c(C(=O)NC2CCN(Cc3ccccc3)CC2)cnn1-c1ccccc1	94	87	102	-12
69	CS(=O)(=O)N(CCC#N)Cc1ccco1	94	87	·	-13
70	O=C(CSCc1nc2cccnc2n1C1CCCCC1)NCc1cccc(Br)c1	97	107	111	·
71	O=C1CC(c2ccccc2)Cc2nc3ncnn3cc21 (stereo unspecified)	86	83	95	-21
72	CC(C)(C)C1CCc2[nH]c3ccccc3c2C1 (stereo unspecified)	94	84	108	·
73	CCn1c(SCC(=O)N2CCCC2)nc2ccccc21	90	94	·	-32
74	COc1ccc(OC)c(NC(=O)c2oc(=O)c3ccccc3c2-c2ccccc2)c1	112	88	99	·
75	CC(C)(C)OC(=O)N1CCC(c2c(C(=O)NCCCN3CCc4ccccc4C3)cnn2-c2ccccc2)CC1	95	89	107	·
76	OC(CN1CCN(c2ccc(Cl)cc2)CC1)Cn1c2ccccc2c2ccccc21 (stereo unspecified)	·	·	114&96	-21
77	Cc1ccc(Nc2c(-c3ccc(O)cc3)nc3cccc(C)n23)cc1	109	97	101	52
78	O=C(COc1ccccc1)N1N=C(c2ccc([N+](=O)[O-])cc2)CC1(O)C(F)(F)F (stereo unspecified)	·	·	106	-45
79	Brc1ccc(COc2cccc3ccc(N4CCCC4)nc23)cc1	·	·	102	6
80	CC(=O)Nc1ccc(S(=O)(=O)NCc2cccn2Cc2cccc(C)c2)cc1	103	78	100	·

Single records (already shown). Values in the order: Sa growth inh | Sa growth inh second temp | GIV Gai3 FP | HCMV NEC inh
O=C(COc1ccccc1)N1N=C(c2ccc([N+](=O)[O-])cc2)CC1(O)C(F)(F)F (stereo unspecified) as listed: · | · | 106 | -45
Brc1ccc(COc2cccc3ccc(N4CCCC4)nc23)cc1 as listed: · | · | 102 | 6

Additional compounds follow:
entry	SMILES	Sa growth inh	Sa growth inh second temp	GIV Gai3 FP	HCMV NEC inh
81	CC(C)CCOc1ccc(C2(C)NC(=O)N(CN3CCOCC3)C2=O)cc1 (stereo unspecified)	100	90	·	-34
82	CCCCN(CC)CCCNC(=O)c1cc2c(-c3ccc(OC)c(OC)c3)nn(C)c2s1	96	79	106	-30
83	CCOc1ccc(S(=O)(=O)N/N=C(\C)c2cccnc2)cc1	84	96	·	-27
84	O=C1COc2ccc(C(=O)CSc3nnc(-c4ccc(O)cc4)c(-c4ccc(O)cc4)n3)cc2N1	95	89	105	-10
85	CCN1CCCC1CNc1cc(C)c2ccc(C)cc2n1 (stereo unspecified)	91	89	·	1
86	CCn1c(C(=O)N2CCC(C(=O)NC3CCC(C)CC3)CC2)cc2sccc21 (stereo unspecified)	98	92	97	-8
87	Cc1ccc(S(=O)(=O)c2nnn3c2nc(N2CCN(c4ccc(F)cc4)CC2)c2cc(Cl)ccc23)cc1C	102	80	99	-26
88	O=C(c1ccc(F)cc1)N1CCC(c2nc(-c3ccc(S(=O)(=O)N4CCCC4)cc3)no2)CC1	101	85	103&93	-32&5

Assay outcomes: PubChem, ICCB-Longwood Screening Facility, Harvard Medical School
